GALR2 ag: activates the human galanin receptor 2 | O43603 | GALR2-expressing cells, agonist activation read-out | activation, %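 (tested at 5 µM)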 | 140,000 compounds, 0.48% hits;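 active means above mean plus 3 SD of all compounds, about 5% in these data, not always enough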;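 further: 0% = vehicle buffer wells and 100% = reference agonist at full effect; tested in CHO reporter cells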
HSV augment: increases HSV replication in cells; HSV replication augmentation in cells, fold increase; maximum fold increase; 220,000 compounds, 0.005% hits; AID 1956;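 active means peak rise of 1.5-fold or more in the series; inconclusive means self-fluorescent or not available for retest; tested in PC3 cells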;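 further: first round at 10 µM; read as green reporter fluorescence; hits show the peak of a series up to 25 µM; 1 = signal of infected wells without compound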
RGS16-Gao HTS: RGS16-Galphao interaction regulator (human). bead-based flow cytometry RGS16-Galphao binding, fluorescence; actives lie on both sides. 220,000 compounds, 0.38% hits. AID 1441. O15492+P09471. binding response (% of control), % at 10 µM;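 active means below 25% or above 175%, edge rows of some plates excepted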;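 further: Galphao activated by GDP with aluminum fluoride before binding; 100% = wells without compound and 0% = beads without RGS; some results beyond the cut were filed as inactive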
Insulin prom inh: TRM-6 insulin promoter activity inhibition | AID 1273 | inhibition, % at 2 µM | TRM-6 cells (human fetal islet line), insulin promoter-eGFP reporter, imaging; reporter expression induced with tamoxifen | 130,000 compounds, 0.9% hits;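 active means inhibition above the mean plus 3 SD, with well images judged a real hit on visual review, cut at about 60% in these data, passing the limit was not always enough; inconclusive means inhibition over the cutoff but images rejected on review; inactive means inhibition not above the cutoff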
PKD1 inh: inhibitors of human PKD1 kinase. PKD1 kinase fluorescence polarization assay. inhibition, %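 (about 10 µM by stock and volumes)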. Q15139. 200,000 compounds, 0.056% hits;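 active means inhibition of 50% or more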;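 further: controls were vehicle for no effect and a reference inhibitor for full effect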
Target sequence (Q15139 whole entry, looked up): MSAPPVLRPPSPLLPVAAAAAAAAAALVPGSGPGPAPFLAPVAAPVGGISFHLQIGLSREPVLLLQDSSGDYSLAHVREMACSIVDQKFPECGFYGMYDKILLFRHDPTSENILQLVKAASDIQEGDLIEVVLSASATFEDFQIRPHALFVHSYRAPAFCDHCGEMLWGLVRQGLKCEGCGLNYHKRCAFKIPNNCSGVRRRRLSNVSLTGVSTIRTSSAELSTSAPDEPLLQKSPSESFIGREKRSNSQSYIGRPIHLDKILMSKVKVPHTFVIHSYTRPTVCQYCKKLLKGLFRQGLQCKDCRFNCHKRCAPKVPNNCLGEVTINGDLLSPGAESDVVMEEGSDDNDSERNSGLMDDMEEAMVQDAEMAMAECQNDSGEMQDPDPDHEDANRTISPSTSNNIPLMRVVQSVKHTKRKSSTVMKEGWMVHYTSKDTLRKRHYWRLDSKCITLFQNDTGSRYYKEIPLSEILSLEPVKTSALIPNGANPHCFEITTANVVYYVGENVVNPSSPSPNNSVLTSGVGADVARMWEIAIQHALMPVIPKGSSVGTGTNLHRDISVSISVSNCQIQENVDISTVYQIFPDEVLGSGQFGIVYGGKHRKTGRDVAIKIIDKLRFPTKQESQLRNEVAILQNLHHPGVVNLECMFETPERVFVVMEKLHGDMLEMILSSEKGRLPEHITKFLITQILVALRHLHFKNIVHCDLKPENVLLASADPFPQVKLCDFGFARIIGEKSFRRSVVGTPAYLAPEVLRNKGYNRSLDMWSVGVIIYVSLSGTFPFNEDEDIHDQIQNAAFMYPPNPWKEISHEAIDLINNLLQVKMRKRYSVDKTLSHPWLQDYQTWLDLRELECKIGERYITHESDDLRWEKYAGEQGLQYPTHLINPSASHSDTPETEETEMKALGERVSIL
Insulin prom inh cell count: second read-out of Insulin prom inh, no call of its own (marks repeat the call); normalized cell count, %; measured here: cell count, toxicity; reference of the scale not given here;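 cells exposed to compound for 48 h; stained nuclei by imaging scaled within each plate; lower means fewer cells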
HSV augment primary fold: also measured in HSV augment; calls as there; fold increase; compound at 10 µM; measured here: primary screen fold increase 10 uM; tested in PC3 cells;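 GFP signal in the first replicate; 1 = infected wells without compound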
* = called active by the depositor; i = inactive; ? = inconclusive; / = not tested or not shown. This is a subset; rates above refer to the full screens.

smiles	GALR2 ag	HSV augment	HSV augment primary fold	RGS16-Gao HTS	Insulin prom inh	Insulin prom inh cell count	PKD1 inh
N#Cc1ccc(N2CCNCC2)c(F)c1	-1.4	i	1.1	98	/	/	-3
CCN(CC)CCCN=C(C)c1c(O)n(-c2ccccc2)c(=O)[nH]c1=O	-0.9	i	0.89	90	-11	73	-8
CCOC(=O)C1CCN(/C=C2\C(=O)NC(=S)N(CC)C2=O)CC1	/	i	0.98	111	-30	25	8
COc1ccc(CN2C(=O)CC(=O)NC2=S)cc1	/	/	/	107	/	/	-4
c1cncc(C2CCCCN2Cc2ccc3c(c2)OCO3)c1 (stereo not drawn)	-2.5	/	/	103	/	/	-11
CN1C(=O)C(Cc2ccc3c(c2)OCO3)C(=O)N(C)C1=O	0.8	i	0.68	97	/	/	1
CCC(=NC(C)c1ccccc1)c1c(O)[nH]c(=O)[nH]c1=O (stereo not drawn)	/	i	0.9	100	/	/	/
O=CC(Br)P(=O)(N1CCOCC1)N1CCOCC1 (stereo not drawn)	/	i	0.81	96	/	/	/
Cc1ccc(S(=O)(=O)N(c2cc(Cl)c(O)c(Cl)c2)P(=O)(OC(C)C)OC(C)C)cc1	/	i	1	103	/	/	-5
COc1cc(C(=O)Nc2ccc(Br)cc2C(=O)c2ccccc2)cc(OC)c1OC	-3.1	i	1	97	/	/	-6
CCC(=Nc1ccc(OC)cc1OC)c1c(O)n(C2CCCCC2)c(=O)[nH]c1=O	-2.7	i	0.88	104	60	108	-9
C=CCNC(=O)c1c(N)n(CCN2CCOCC2)c2nc3ccccc3nc12	2.7	i	0.96	110	12	133	1
O=c1[nH]c(=S)[nH]c(O)c1N=Nc1ccc(S(=O)(=O)N2CCc3ccccc32)cc1	/	i	0.77	98	-33	45	-3
O=c1c2ccccc2nc(-c2ccccc2)n1-c1ccncc1	-0.8	i	0.83	106	-59	131	-7
O=C(NCCN1CCOCC1)c1ccc(Cl)nc1	/	i	0.88	98	/	/	/
CC(C)CCP(=O)(O)c1ccccc1	0.2	i	0.97	99	/	/	10
CC(=O)Cc1c[nH]c2ccccc12	/	i	1.2	104	/	/	/
CCOC(=O)C1=C(N)Oc2c(c(=O)oc3ccccc23)C12C(=O)N(C)c1ccccc12 (stereo not drawn)	-0.8	i	0.95	91	/	/	0
CC[C@@]1(O)C(=O)OCc2c1cc1n(c2=O)Cc2cc3ccccc3nc2-1	/	i	0.55	91	/	/	/
CC12CN3CN(C1)CC(C)(C3)C2=NO	-0.8	i	0.98	107	-23	121	6
COc1cc(C2SCC(=O)Nc3c2c(=O)[nH]n3C2CCCCCC2)cc(OC)c1OC (stereo not drawn)	-1.2	i	0.89	99	-8	71	-10
O=C(Cn1ncc2c3ccccc3n(Cc3ccccc3)c2c1=O)N1CCC2(CC1)OCCO2	-0.5	i	0.91	101	-38	59	-1
COc1cccc(-n2c(O)c(C=Nc3c(C)n(C)n(-c4ccccc4)c3=O)c(=O)[nH]c2=O)c1	-1.8	i	0.94	100	-21	77	-9
COc1ccc(CC2(CCc3ccccn3)C(=O)NC(=O)N(c3ccccc3C)C2=O)cc1OC (stereo not drawn)	/	i	1.1	103	-43	72	-2
CC(C(=O)O)N(C(=O)c1ccccc1)c1ccc(F)c(Cl)c1 (stereo not drawn)	/	i	0.96	95	29	105	-6
COc1ccc(NC(=O)c2cc([N+](=O)[O-])ccc2N2CCNCC2)cc1	/	i	1.1	105	/	/	-14
CC1(C)N=C(c2ccccc2)[C@@H]2C(c3ccc([N+](=O)[O-])cc3)N21 (stereo partly drawn)	0.1	i	1	100	-13	111	-3
CCC(=NC1CC1)c1c(O)n(-c2ccc(OC)cc2)c(=O)[nH]c1=O	-2.5	i	1	131	-25	139	-1
CN1CCN(c2nc3ccccc3o2)CC1	/	i	1.1	104	/	/	/
Cn1ccnc1P(=S)(c1nccn1C)N1CCOCC1	-0.1	i	1	99	/	/	-5
COc1ccc(C2NCc3ccc4c(c3-n3cccc32)OCO4)cc1OC (stereo not drawn)	-1.3	i	0.9	102	3	96	-3
Cc1ccsc1C(=O)C1CCCN(Cc2cccn2-c2ccccn2)C1 (stereo not drawn)	/	i	1	96	0	143	4
Cc1ccc(OCCSC2=NN2c2cc(C)nc(N)n2)cc1	/	i	1	95	/	/	-4
CC(CO)(CO)N=Cc1c(O)n(-c2cccc3ccccc23)c(=O)[nH]c1=O	-1.4	i	0.96	100	28	79	-10
COc1ccccc1CCNCc1cc2c(cc1[N+](=O)[O-])OCO2	-1.9	i	0.98	100	/	/	8
CCc1ccc2c(CN3CC=C(c4ccccc4)CC3)cc(=O)oc2c1	-1.6	i	1.1	105	33	90	22
O=c1c2ccccc2nc(-c2ccco2)n1-c1cccnc1	-1.7	i	0.92	103	3	88	-9
CCCCCCn1c(O)c(C=NCCCn2ccnc2)c(=O)[nH]c1=O	-0.1	i	1.2	91	-16	143	-2
COc1ccc(N=Cc2c(O)n(CC3CCCO3)c(=O)[nH]c2=O)cc1 (stereo not drawn)	-0.1	i	0.97	108	/	/	4
CN1C(=O)C(=Cc2ccccc2OCc2ccccc2Cl)C(=O)N(C)C1=O	-1.2	i	0.82	101	/	/	-11
CC(=NCCc1ccccc1)c1c(O)n(C)c(=O)n(C)c1=O	/	i	1	98	/	/	/
Cc1ccc2nc3c(cc2c1)CC1(C(=O)N(C)C(=O)N(C)C1=O)C1COCCN31 (stereo not drawn)	0.5	i	0.81	106	/	/	-8
CCCC(C)C1(CC)C(=O)NC(=Nc2ccc(F)cc2)NC1=O (stereo not drawn)	-2.4	i	0.98	100	-68	79	-11
COc1ccc(CN2CCN(C(=O)Cc3ccccc3)CC2)c(OC)c1	-1.2	i	0.94	124	-38	65	10
CC1CCC(C(C)C)C(OP(N)(=O)c2ccccc2)C1 (stereo not drawn)	0.1	i	0.92	101	0	113	-2
COc1cc(CC2(CCc3ccncc3)C(=O)N(C)C(=O)N(C)C2=O)cc(OC)c1OC	/	i	1.1	87	53	82	1
CCOC(=O)c1cccc([P+](=O)O)c1	-0.6	i	1.1	99	24	103	-4
CCN(CC)CCOC(=O)C(O)(c1ccccc1)c1ccccc1	-1.2	i	0.91	92	-59	63	-3

Entries of single compounds from above. Values in the order: GALR2 ag | HSV augment | HSV augment primary fold | RGS16-Gao HTS | Insulin prom inh | Insulin prom inh cell count | PKD1 inh
`COc1ccc(CN2CCN(C(=O)Cc3ccccc3)CC2)c(OC)c1` reads -1.2 | i | 0.94 | 124 | -38 | 65 | 10
`CN1C(=O)C(=Cc2ccccc2OCc2ccccc2Cl)C(=O)N(C)C1=O` reads -1.2 | i | 0.82 | 101 | / | / | -11

(next part)
smiles	GALR2 ag	HSV augment	HSV augment primary fold	RGS16-Gao HTS	Insulin prom inh	Insulin prom inh cell count	PKD1 inh
COc1ccccc1/C=C1/C(=N/O)C2CCN1CC2	-1.1	i	1	95	-22	60	-13
CC(C)CCNC(=O)CN1C(=O)CN=C(c2ccccc2)c2ccccc21	/	i	0.92	100	/	/	/
Cc1cc(OCc2ccc([N+](=O)[O-])cc2)c2c3c(c(=O)oc2c1)CCCC3	-3.3	/	/	101	8	71	-2
CCCCn1c(O)c(C=NCc2ccc3c(c2)OCO3)c(=O)[nH]c1=O	/	i	0.96	97	/	/	/
CCCn1c(C(=O)c2ccccc2OC)nc2ccccc21	/	i	0.99	73	/	/	-7
CCC(=O)c1cn(Cc2ccc(C#N)cc2)c2ccccc12	-1.5	i	0.95	115	-69	44	-1
CC1CCCCN1Cc1cccnc1 (stereo not drawn)	/	i	0.98	114	27	121	0
Cn1cc(C(=O)NCc2ccccc2)c2ccccc21	/	i	0.91	101	/	/	-4
O=c1[nH]c(=O)n(Cc2ccco2)c(O)c1C=NCCCn1ccnc1	0.9	/	/	99	28	160	-6
COc1cc2c(C(=O)N3CCN(C)CC3)c(C)n(C)c2cc1Br	-2.9	i	1	100	-93	74	-2
O=c1[nH]c(=O)n(C2CCCCC2)c(O)c1C=NCCCn1ccnc1	-0.4	i	0.91	104	31	111	-9
COC1CCCCC1NCCc1ccccc1 (stereo not drawn)	/	i	1.1	102	-21	67	2
CCOc1cccc(CNC2CN3CCC2CC3)c1 (stereo not drawn)	-1.7	i	0.95	100	7	116	1
COCCCNC(=O)c1c(N)n(Cc2ccco2)c2nc3ccccc3nc12	/	?	/	97	/	/	/
CCC1(C)CC(CCNCc2ccc(N(C)C)cc2)(c2ccc(F)cc2)CCO1 (stereo not drawn)	/	i	0.74	100	/	/	/
O=C(NC(Cc1cnc[nH]1)C(=O)O)c1ccccc1 (stereo not drawn)	/	i	0.95	101	/	/	2
COc1ccc(O)c(CN2CCCC(C(=O)c3sccc3C)C2)c1 (stereo not drawn)	/	i	0.97	106	/	/	5
O=C(c1cc(F)ccc1F)C1CCCN(Cc2ccc3nonc3c2)C1 (stereo not drawn)	/	i	1	98	/	/	-4
COc1cccc(C2=NOC(C(=O)N3CCC4(CC3)OCCO4)C2)c1 (stereo not drawn)	-1.4	i	0.9	92	/	/	16
COc1ccc(/C=C2\C(=N\O)C3CCN2CC3)cc1	0.1	i	0.94	41	57	129	1
Cc1nn(Cc2ccccc2)c(C)c1C(=O)OCC(=O)Nc1ccccc1SCC#N	-2.4	i	0.87	99	-118	103	-3
O=C1C2CCN(CC2)C12CC2c1ccc(C(F)(F)F)cc1 (stereo not drawn)	/	i	0.88	96	/	/	/
OC1(c2ccc(F)cc2)CCNC1 (stereo not drawn)	-2.7	i	0.85	97	/	/	1
CN(C)CC1CSCCC1(O)c1ccc(Cl)cc1 (stereo not drawn)	-2.1	i	1.1	106	-353	84	4
CCOc1cc(C=C2C(=O)NC(=O)NC2=O)ccc1OS(=O)(=O)c1ccccc1	-1.1	i	0.74	90	39	128	0
C/C(=N\N1CCCCC1c1cccnc1)c1c(O)n(C2CCCCC2)c(=S)[nH]c1=O (stereo not drawn)	2.5	i	1.1	100	-20	74	-11
COc1ccc(/C=C2/C(=O)NC(=O)N(c3ccccc3)C2=O)cc1CN1C(=O)c2ccccc2C1=O	/	i	0.82	87	/	/	/
COc1ccc(/C=C2/C(=O)NC(=O)N(c3ccc(C)c(C)c3)C2=O)cc1CN1C(=O)c2ccccc2C1=O	-0.1	i	1.2	128	-2	105	0
CCCCCCn1c(O)c(C=NCCN2CCOCC2)c(=O)[nH]c1=O	-2.1	i	1.2	102	29	98	-6
O=c1[nH]c(=S)n(C2CC2)c(O)c1C=NCc1ccc(F)cc1	/	i	0.98	102	/	/	/
COC(=O)c1c(C)[nH]c(C(=O)C(C)[N+]23CCN(CC2)CC3)c1C (stereo not drawn)	/	i	1	101	/	/	-3
Cc1ccc(CN2C3CCCC2CC(NC(=O)Nc2cccc(F)c2)C3)cc1 (stereo not drawn)	/	i	0.78	100	/	/	7
CCOC(=O)C(C)(CC)NC(=O)CSP(=S)(OCC)OCC (stereo not drawn)	0.1	i	0.96	102	-19	62	-6
O=C1NC(=O)N(c2ccccc2)C(=O)/C1=C/c1ccc(Sc2ccccc2)o1	-1.5	i	0.9	97	17	81	-7
O=C(Nc1ccccc1)NC1CC2CCC(C1)N2 (stereo not drawn)	-2.4	i	1.1	-26	6	77	-4
O=c1c2ccccc2nc(-c2cccs2)n1-c1ccccc1	-1.8	i	0.94	98	18	124	1

Part of the list above, field by field.
CCOC(=O)C(C)(CC)NC(=O)CSP(=S)(OCC)OCC (stereo not drawn)
- GALR2 ag = 0.1
- HSV augment = i
- HSV augment primary fold = 0.96
- RGS16-Gao HTS = 102
- Insulin prom inh = -19
- Insulin prom inh cell count = 62
- PKD1 inh = -6

N#Cc1ccc(N2CCNCC2)c(F)c1
- GALR2 ag = -1.4
- HSV augment = i
- HSV augment primary fold = 1.1
- RGS16-Gao HTS = 98
- Insulin prom inh = /
- Insulin prom inh cell count = /
- PKD1 inh = -3

(continued)
smiles	GALR2 ag	HSV augment	HSV augment primary fold	RGS16-Gao HTS	Insulin prom inh	Insulin prom inh cell count	PKD1 inh
CN(C(=O)c1ccco1)C1(c2ccccc2Cl)CCCCC1=O (stereo not drawn)	-1.5	i	0.97	103	-33	104	12
CCCCCCCC(=O)NC(Oc1ccccc1[N+](=O)[O-])C(Cl)(Cl)Cl (stereo not drawn)	-0.1	i	0.66	93	45	193	-3
CCCCn1c(N)c(C(=O)OCCOC)c2nc3ccccc3nc21	/	i	0.83	96	/	/	/
CCN(CC)c1ccc(C=C2C(=O)N(C)C(=S)N(C)C2=O)o1	-1.4	?	/	100	-129	130	-14

High-throughput results deposited in PubChem BioAssay by several laboratories.
